Source: PubChem (National Center for Advancing Translational Sciences (NCATS))
VACV mCherry inh: qHTS for Stage-Specific Inhibitors of Vaccinia Orthopoxvirus: mCherry Reporter Primary qHTS; Vaccinia virus mCherry reporter infection, fluorescence; about a quarter of the inactives have no number; hit rate 0.63% among 310,000; AID 720579, 2013; Potency, µM (series often up to 36.5 µM), without a hit: at the highest dose activity change, negative = inhibition, most hits filed as inhibitors; active = well fitted inhibition curve with a large enough effect; inconclusive = small, poorly fitted or top-dose-only effect; inactive = no such curve, though single readings can be large or run the other way; tested in A549 cells; also: nearly all actives have a fitted effect of over 35% in size; inactives centre near -10
Vaccinia Venus: qHTS for Stage-Specific Inhibitors of Vaccinia Orthopoxvirus: Venus Reporter Primary qHTS. Vaccinia virus Venus reporter expression, fluorescence. Potency, µM (top dose mostly 36.5 µM), for inactives: at the highest dose activity change, negative = inhibition, hits mostly inhibitors. hit rate 0.46% among 330,000. AID 720580, 2013; active means well fitted inhibition curve with a large enough effect; inconclusive means small, poorly fitted or top-dose-only effect; inactive means no such curve, though single readings can be large or run the other way; tested in A549 cells; also: nearly all actives have a fitted effect of over 30% in size; inactives centre near -10
* = called active by the depositor; i = inactive; ? = inconclusive; nt = not tested or not shown; [ ] = another dose, or the depositor's remark. % is scaled to controls: 0 for no effect and ±100 for the full control effect; potency is read from the fitted curve at half-maximal effect.

Molecule | VACV mCherry inh | Vaccinia Venus
CN(C)S(=O)(=O)c1cccc(C(=O)NCCc2ccccc2)c1 | nt | -18%
Cc1ccc2nc(-c3ccc(Cl)c(NC(=O)c4cccnc4)c3)oc2c1 | -2% | 12%
CCOC(=O)c1c(NC(=O)CSc2nnc(-c3cccnc3)o2)sc(C)c1C | nt | -14%
c1ccc(CNc2nc(-c3ccccc3)nc3ccccc23)cc1 | -13% | -23%
Cc1cc(=O)oc2cc(NC(=S)NNC(=O)c3c(Cl)cnn3C)ccc12 | -15% | -24%
COc1ccc([N+](=O)[O-])cc1NC(=O)C1C2C=CC(C2)C1C(=O)O (configuration not stated) | i | 11%
COc1ccc(CN2CCN(C(=O)COc3cccc(C)c3)CC2)c(OC)c1 | -24% | -19%
CN(CC(=O)Nc1ccccc1Cl)C(=O)CCc1nc2ccccc2c(=O)[nH]1 | i | -16%
COCC(=O)Nc1cc(C)cn(Cc2c(F)cccc2Cl)c1=O | -6% | -7%
CN(C)/C=C(\C#N)C(=O)c1cccc(Oc2ccc(Br)cc2)c1 | -13% | -12%
O=C(c1ccccc1)C(CN1CCCC1)c1ccccc1 (configuration not stated) | ? | 16µM*
Cc1ccc(-c2noc(C3CCCN(S(=O)(=O)c4ccc5ccccc5c4)C3)n2)o1 (configuration not stated) | -10% | 2%
COc1ccc2cc(C(=O)C3CCCN(Cc4cnc(C)s4)C3)ccc2c1 (configuration not stated) | -15% | -27%
O=C1CC(C(=O)Nc2ncccn2)C(c2ccccc2)O1 (configuration not stated) | -15% | -4%
CCOC(=O)Cc1csc(NC(=O)COc2ccccc2OC)n1 | i | -2%
COC(=O)CCC(=O)OC1(C)C(=O)C=C2C=C(C3CC3)N(C3CC3)C=C2C1=O (configuration not stated) | 0% | -1%
C=CCNC(=S)Nc1sc2c(c1C(=O)OCC)CC(C(C)C)OC2 (configuration not stated) | -27% | -19%
CSc1nsc(/C=C/Nc2ccc(Cl)cc2)c1C#N | -10%[1.46 µM] | -13%
O=C(NCCN1CCOCC1)C1CCC(CNS(=O)(=O)c2ccc(Cl)cc2)CC1 (configuration not stated) | -14% | -18%
C#CCn1c(=O)n(-c2cccc(Cl)c2C)c(=O)c2c3c(sc21)CN(C(C)=O)CC3 | i | -7%

An excerpt of these results, as labelled records.
molecule: C#CCn1c(=O)n(-c2cccc(Cl)c2C)c(=O)c2c3c(sc21)CN(C(C)=O)CC3
  VACV mCherry inh = i
  Vaccinia Venus = -7%
molecule: O=C(c1ccccc1)C(CN1CCCC1)c1ccccc1 (configuration not stated)
  VACV mCherry inh = ?
  Vaccinia Venus = 16µM*

More records
Molecule | VACV mCherry inh | Vaccinia Venus
CCOCCCNC(=O)c1cn(CC)c2ccc(S(=O)(=O)N3CCOCC3)cc2c1=O | -3% | 3%
CCc1cccc2c(-c3csc(=NC)n3C)c[nH]c12 | ? | -17%
O=C(COc1ccc(S(=O)(=O)NCc2ccccc2)cc1Cl)NCc1ccncc1 | i | 0%
CC1(C)C2CC[C@]3(C)C(CC=C4[C@@H]5C[C@@](C)(CO)[C@@H]6C[C@@]5(CC[C@]43C)C(=O)O6)[C@@]2(C)CC[C@@H]1O (some centres not stated) | 5% | -1%
O=C(NC(=S)Nc1ccc(S(=O)(=O)Nc2nccs2)cc1)c1ccccc1 | i | -19%
CCOc1ccc2c(c1)nc(SCC(=O)c1cccs1)n2C | -20% | -1%
C=CCn1c(=O)c2ccccc2n2c(SCc3nnc(-c4ccccc4Br)o3)nnc12 | -13% | -13%
O=C(COC(=O)c1ccc(S(=O)(=O)NCc2ccco2)cc1)Nc1ccccc1OC(F)F | -10% | 0%
Cc1ccc(S(=O)(=O)N2C[C@H]3C(=O)C[C@@H](c4cccc(C)c4)N(S(=O)(=O)c4ccc(C)cc4)[C@H]3C[C@H]2c2ccccc2)cc1 | i | -5%
O=S1(=O)CC(O)C(N2CCC(c3ccccc3)CC2)C1 (configuration not stated) | -11% | -2%
CCNC(=O)C1(C)CCN(Cc2ccc(-c3ccccc3)cc2)C1 (configuration not stated) | i | -7%
CNCCC(Oc1ccccc1OC)c1ccccc1 (configuration not stated) | ? | -19%
CN(C)c1ccc(O)c2c1CC1CC3[C@@H](N(C)C)C(=O)C(C(N)=O)C(=O)[C@]3(O)C(=O)C1C2=O (some centres not stated) | ? | -28%
Cn1c(SCC(=O)c2ccccc2)ncc(C(=O)Nc2ccc(F)cc2)c1=O | i | -20%
CC(C)C(C)(C#N)NC(=O)CSc1nncn1-c1ccccc1 (configuration not stated) | -16% | -7%
O=C(COc1nc2ccccc2nc1N1CCOCC1)NCC(F)(F)F | -14% | -11%
COc1ccc(N2CC(C(=O)N/N=C/c3ccccc3)CC2=O)cc1 (configuration not stated) | i | -26%
CC(C)Oc1ccc(C(=O)Nc2ccc3c(c2)n(C)c(=O)n3C)cc1 | i | -16%
CCCCNC(=O)COC(=O)c1ccc(NC(C)=O)cc1 | i | -7%
CN1/C(=C\C(=O)CN2C(=O)NC3(CCCCCC3)C2=O)C(C)(C)c2ccccc21 | -16% | -2%
COC(=O)COc1ccc2occ(C(C)=O)c2c1 | -20% | -10%
CCN(CC)S(=O)(=O)c1ccc2c(c1)nc(SCc1nc3ccsc3c(=O)[nH]1)n2CC | -12% | -12%
COc1cc2c(=O)n(Cc3ccco3)c(=O)n(CC(=O)c3cccc(Br)c3)c2cc1OC | nt | -1%
CCc1nc2c(OCc3ccc4c(c3)OCO4)cccn2c1N(C=O)Cc1ccccc1 | ? | -4%
O=C1N=NC2=C1c1c3ccccc3c(O)n1CC2 | -11% | -3%
Cc1ccc(NC(=O)c2ccc(CN3CC(=O)N4CCCCC4C3=O)cc2)c(Cl)c1 (configuration not stated) | i | -21%
CCc1nnc(NC(=O)CSc2nnc(Cc3cccn3C)n2C)s1 | -21% | 2%
Cc1nc(-c2ccccc2O)n(-c2ccccc2)n1 | nt | -8%
OCCCNc1c2ccccc2nc2ccccc12 | 11µM* | 10µM*
CCOC(=O)c1cnc2ccc(OCC)cc2c1NCCN1CCOCC1 | i | 2%
Cc1c(O)c2c3c(cccc3c1O)C(=O)N(c1ccccc1)C2=O | -27% | 12%
Nc1ccc2ccccc2c1N=Nc1ccccc1 | ? | -9%
CN(C(=O)Nc1cnccc1C(F)(F)F)C1CCCCC1 | -16% | -11%
O=C(Nc1ccccc1C(F)(F)F)C1CCN(c2nnc(-n3cccc3)s2)CC1 | -7% | -16%
CCOC(=O)[C@]12CCC=C1N(CCC1=CCCCC1)C(=O)[C@H](CC(=O)N1CCOCC1)C2 | -2% | -4%
CC(=O)C1CC[C@H]2C3CC[C@@H]4CC(O)CC[C@@]4(C)C3CC[C@]12C (some centres not stated) | -14% | -17%
Cc1cc(N2C(=O)C3CCC(c4ccccc4)CC3C2=O)no1 (configuration not stated) | -6% | -3%
CCOC(=O)NC(C)N1C(=O)C2C3C=CC(C3)C2C1=O (configuration not stated) | -8% | -4%
CCCN(CCC)S(=O)(=O)c1ccc(NS(C)(=O)=O)cc1 | -12% | -10%
NCCCC[C@H](N)c1nnc([C@H](CC(=O)O)NC(=O)C2CCNCC2)o1 | -13% | 4%

Copied from the results shown (2 entries):
Molecule | VACV mCherry inh | Vaccinia Venus
O=C(Nc1ccccc1C(F)(F)F)C1CCN(c2nnc(-n3cccc3)s2)CC1 | -7% | -16%
CCOC(=O)[C@]12CCC=C1N(CCC1=CCCCC1)C(=O)[C@H](CC(=O)N1CCOCC1)C2 | -2% | -4%

(continued)
Molecule | VACV mCherry inh | Vaccinia Venus
Cc1ccc(Nc2nc3ccccc3c3nncn23)cc1C | -21% | -11%
COc1cc(OC)c(NC(=O)C2CCN(S(=O)(=O)c3ccc4c(c3)oc(=O)n4C)CC2)cc1Cl | -1% | -5%
CCOC(=O)Cn1cnc(-c2ccc([N+](=O)[O-])cc2)c1 | -8% | -13%
Cn1cnc(S(=O)(=O)Nc2ccc(Cl)c(C(F)(F)F)c2)c1 | -8% | -5%
O=C1c2ccccc2C(Nc2ccc(S(=O)(=O)N3CCOCC3)cc2)N1c1ccccn1 (configuration not stated) | -12% | 8%
COc1cc(CNC2CCCC2)cc(OC)c1OC | -1% | -5%
CCCSc1ncc(Cl)c(C(=O)Nc2ccc(S(=O)(=O)N3CCCCC3C)cc2)n1 (configuration not stated) | -22% | -26%
CC(C)c1cnc2c(c1SCC(=O)NCc1ccccc1)c(=O)n(C)c(=O)n2C | -11% | -15%
Cc1ccc(S(=O)(=O)NCC(=O)NCC(=O)NC(C)c2ccccc2Br)cc1C (configuration not stated) | ? | ?
Cc1ccc(C(C(=O)NC(C)(C)C)N(Cc2cccs2)C(=O)c2ccc3c(c2)OCCO3)cc1 (configuration not stated) | i | -13%
Cc1ccccc1-n1nc2c(c1NC(=O)/C=C\c1ccc3c(c1)OCO3)CSC2 | -21% | -11%
OCCC1CN(Cc2cccn2-c2cccnc2)CCN1CCc1ccccc1 (configuration not stated) | i | -10%
O=C1C=CC(c2c[nH]c3ccccc23)CC1 (configuration not stated) | 1% | 0%
CCCCNC(=S)NNC(=O)c1ccncc1 | i | -7%
CSc1nc2ncc3c(n2n1)CC(C)(C)CC3=O | i | -11%
NC(=O)c1ccc(-n2nnnc2SCC(=O)c2ccc(O)c(O)c2)cc1 | i | -10%
O=C(OCc1cn([C@H]2CN(CC3CCCCC3)[C@@H](c3ccc(Cl)cc3)C[C@@H]2O)nn1)c1ccccc1 | ? | ?
CN(N=O)c1ccc(/C=C/c2ccnc3ccccc23)cc1 | -24% | -22%
CCOc1ccc(CCNC(=O)CN2C(=O)NC3(CCc4ccccc43)C2=O)cc1OCC (configuration not stated) | -9% | -11%
CCOC(=O)c1c(C)[nH]c(N=Nc2cc(C(=O)O)cc(C(=O)O)c2)c1C | 11% | -4%
Cc1ccc(C(C)C)cc1OCCN1CCCC1 | -7% | -2%
CCOC(=O)c1c(NC(=O)c2cccs2)sc(C)c1C | nt | -1%
Cc1ccc(N(CC(=O)NC2CCCC2)C(=O)CNC(=O)c2cccs2)cc1C | i | -9%
Cc1ccc2[nH]c(=O)c(COC(=O)c3ccccn3)cc2c1 | nt | -10%
Cc1cnc(NC(=O)c2ccc(-c3nc4ccccc4s3)o2)s1 | -20% | -13%
Cc1cc(Cn2nnc3ccccc32)c(O)c(C(C)(C)C)c1 | -14% | ?
O=C1OCCN1C(=O)[C@H]1[C@H](c2ccc(F)cc2)C(c2cccc(Cl)c2)=NN1c1ccc(Br)cc1 | -14% | -14%
COc1ccc(-c2csc(Nc3ccccn3)n2)cc1 | -17% | -24%
Cc1cc2sc(NC(=O)c3ccco3)nc2cc1Cl | i | -4%
CCC(CO)Nc1ccn2nc(-c3ccccc3)cc2n1 (configuration not stated) | i | 4%
Cc1cc(Br)c(NC(=O)C(C)Sc2nnnn2C)c(Br)c1 (configuration not stated) | -11% | -5%
CN1CCc2cc3c(c4c2C1CC41CCC(=NO)CC1)OCO3 (configuration not stated) | nt | 4%
COc1cc(Cl)c(C)cc1NC(=O)CSc1nnc(CCC(=O)O)c(=O)[nH]1 | -1% | -3%
COC(=O)c1cc(Cl)c(NC(=O)c2cc(OC)c(OC)c(OC)c2)cc1OC | -18% | 1%
COc1ccnc(N2CCN(c3cccc(C(F)(F)F)c3)CC2)c1C#N | -17% | -9%
O=C(CP(=O)(c1ccccc1)c1ccccc1)Nn1cnnc1 | nt | -3%
O=S1(=O)CC(N2CCC(c3ccccc3)CC2)CN1Cc1ccccc1 (configuration not stated) | 6% | -12%
CCOc1ccc(N(C(C)C(=O)NN=C2CCCCCCC2)S(C)(=O)=O)cc1 (configuration not stated) | -12% | -2%
COc1ccc(-n2nnnc2CNC(=O)c2c(-c3ccccc3Cl)noc2C)cc1 | -5% | -3%
COc1ccc(CNC(=O)/C=C/[C@H]2O[C@@H](n3ccc(=O)[nH]c3=O)[C@H](O)[C@@H]2O)cc1 | i | -10%
CC(CCc1ccccc1)NC(=O)CNC(=O)N1CC(=O)Nc2ccccc21 (configuration not stated) | -3% | -14%
COCCn1c(SCC(=O)NNC(=O)c2ccccc2)nc2ccccc2c1=O | -13% | -21%
N#C/C(=C\c1ccc(F)c(F)c1)C(=O)NC1CCCCC1 | i | -10%
Cc1ccc(S(=O)(=O)c2nc(-c3ccco3)oc2SCC(N)=O)cc1 | 0% | 3%
Cc1ccccc1CN1C(=O)c2ccccc2Sc2ccc(C(=O)NCCCN3CCOCC3)cc21 | -11% | -11%
CCOc1ccc(CCNC(=O)c2nn(-c3ccc(OC)cc3)c(=O)c3c2c2ccccc2n3C)cc1OCC | -3% | -10%
COc1ccc(CCNC(=O)c2cc(S(=O)(=O)N3CCOCC3)cn2C)cc1OC | 14% | 0%
CCc1cc2c(cc3c(=O)n(CC(=O)NCCc4ccccc4)ncn32)s1 | -3% | -19%
